High-throughput results as filed in PubChem BioAssay.
rRNA inh HTS: inhibitors of bacterial rRNA selective over humanized ribosomes; E. coli WT GFP vs humanized-ribosome RFP mutants, fluorescence, 24 h; stronger effect = lower value; DMSO median 0, no signal -100; GFP signal change (wild-type ribosome), % (no concentration beside the values); hit rate 1.6% among 350,000; AID 720706;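 active = significant combined selectivity score with lowered wild-type GFP, culture density cut under 30%, mutant RFP and density less affected; inactive = any of these conditions unmet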; note: one replicate is shown; some compounds called inactive have numbers as strong as hits
Beta2AR agonist: activates human beta-2 adrenergic receptor causing internalization; hit rate 0.43% among 340,000; Am2.2-beta2AR cells, FAP receptor internalization, flow cytometry; reference of the scale not given here; AID 504454; response, % (no concentration beside the values); P07550;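 active = response above a set limit, near 3 SD of response in nonfluorescent compounds, cut at about 42% in these data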;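 note: stock transfer was 100 nL into about 11 µL; a reference agonist was the positive control; negative values mostly stem from fluorescent compounds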
ALR inh: inhibitors of human sulfhydryl oxidase ALR; inhibition, % (no concentration beside the values); purified ALR, DTT oxidation, H2O2 HRP-luminol luminescence; hit rate 3.8% among 290,000;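 active = mean and each replicate at 75% or more; inconclusive = only one of the two met; inactive = neither met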;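 note: stock transfer was 7.5 nL into about 7.5 µL; 0% = neutral wells and 100% = wells with inactivated enzyme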
Target sequence (P55789 whole entry, looked up): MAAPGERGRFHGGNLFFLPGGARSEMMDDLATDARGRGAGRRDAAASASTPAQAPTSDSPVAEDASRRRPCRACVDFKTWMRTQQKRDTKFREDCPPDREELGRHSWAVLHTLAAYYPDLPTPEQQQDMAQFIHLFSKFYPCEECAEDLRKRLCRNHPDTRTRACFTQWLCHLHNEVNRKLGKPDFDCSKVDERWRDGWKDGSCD
E coli growth: E. coli growth inhibition; Escherichia coli growth, OD600, 23 h; stronger effect = lower value; OD600 absorbance (no concentration beside the values); hit rate 0.21% among 330,000; AID 1053175;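 active = OD600 absorbance below the run mean of sample wells minus 3.6 SD, in any replicate, cut at about 0.56 in these data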;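 note: stock transfer was 300 nL into about 60 µL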
HNF4A DNA FP: change in binding of human HNF4 alpha to DNA | P41235 | HNF4a-FITC DNA binding, fluorescence polarization, 1 h | activity change, % at 10 µM | hit rate 0.3% among 360,000; in the data active = activity change above about 30%, passing the limit was not always enough;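 note: controls were the assay level and a saturating level of protein; the project sought stronger binding though the title names inhibitors; some compounds called inactive have numbers as strong as hits; positive values seem to mean higher polarization but the record does not say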
Target sequence (P41235 whole entry, looked up): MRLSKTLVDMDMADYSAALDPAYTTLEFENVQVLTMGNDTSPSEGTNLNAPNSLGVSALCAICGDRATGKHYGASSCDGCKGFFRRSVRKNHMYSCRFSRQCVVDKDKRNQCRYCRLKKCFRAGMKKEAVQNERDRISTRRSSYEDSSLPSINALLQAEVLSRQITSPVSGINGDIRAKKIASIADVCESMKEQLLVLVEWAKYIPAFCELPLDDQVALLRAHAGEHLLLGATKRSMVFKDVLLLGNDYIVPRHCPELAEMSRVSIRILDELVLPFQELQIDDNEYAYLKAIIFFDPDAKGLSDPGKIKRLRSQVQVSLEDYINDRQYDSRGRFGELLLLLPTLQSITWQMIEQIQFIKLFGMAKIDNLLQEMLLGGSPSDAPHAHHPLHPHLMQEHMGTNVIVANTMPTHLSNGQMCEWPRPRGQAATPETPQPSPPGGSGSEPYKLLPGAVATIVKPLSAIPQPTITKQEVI
FGF22 binding: FGF22 (human) thermal shift binding | Q9HCT0 | AID 651658 | calls only at 9.99 µM | recombinant FGF22 thermal shift, SYPRO orange fluorescence; percent of sucrose octasulfate shift, DMSO zero | hit rate 1.5% among 340,000;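 active = melting point raised past a set limit in the mean and every replicate; inconclusive = no clear call; three in four hits are not shown here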
Target sequence (Q9HCT0 whole entry, looked up): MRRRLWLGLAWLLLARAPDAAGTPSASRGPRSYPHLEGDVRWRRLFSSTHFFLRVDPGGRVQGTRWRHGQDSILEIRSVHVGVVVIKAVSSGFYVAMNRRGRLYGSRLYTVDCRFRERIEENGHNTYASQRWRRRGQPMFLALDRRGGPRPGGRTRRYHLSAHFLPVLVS
UCH37 DUB inh: inhibitors of human deubiquitinating enzyme UCH37; purified proteasome/UCH37, Ub-AMC cleavage fluorescence; inhibition, % (test concentration not listed); hit rate 0.33% among 330,000; Q9Y5K5;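 active = mean of two replicates above 20%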;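 note: 0% = compound-free wells with enzyme and 100% = wells lacking proteasome; stock transfer was 100 nL into about 20 µL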
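Signal – fluorescence, ex 355 nm, em 460 nm · System – Proteasome-bound UCH37 · Input – 0.15 nM proteasome as dispensed · Timing – 30 min preincubation with enzyme, 25 min cleavage at room temperature · Read-out basis – percent inhibition of cleavage signal versus uninhibited and no-proteasome wells · Medium – Tris-HCl pH 7.4 with ATP-MgCl2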
rRNA inh HTS OD600: further read-out of rRNA inh HTS, marked with its call; OD600 change, %; measured here: OD600 growth;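 optical density of the mix in the first replicate; 0 = DMSO median and -100 = no signal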
rRNA inh HTS RFP: second read-out of rRNA inh HTS, no call of its own (marks repeat the call); RFP signal change, %; measured here: RFP humanized mutant strains;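 first replicate; 0 = DMSO median and -100 = no signal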
Starred values were filed as active, the others as inactive. A portion of the library; count on the stated rates, not on these rows.

`CN(C)c1ccc(/C=N/NC(=O)c2nnn(-c3nonc3N)c2CN(C)c2ccccc2)cc1` gave rRNA inh HTS 6.4, Beta2AR agonist 1.8, ALR inh -2.1, HNF4A DNA FP 2.7, FGF22 binding inactive, rRNA inh HTS OD600 5.8 and rRNA inh HTS RFP -3.3.
For CCn1c(Cc2ccccc2)nnc1SCC(=O)Nc1nc(C)cs1 the results were Beta2AR agonist -4.6, ALR inh -24.2, E coli growth 0.711, HNF4A DNA FP 1.9 and UCH37 DUB inh 3.8.
Screening Cc1ccccc1NC(=O)c1cc(S(=O)(=O)N2CCOCC2)ccc1F returned Beta2AR agonist 11.5, ALR inh -2.5, E coli growth 0.7, HNF4A DNA FP -1.7 and UCH37 DUB inh 1.7.
`Cc1cc(N2CCN(C(=O)c3ccco3)CC2)n2nc(C)nc2n1` gave rRNA inh HTS 8.0, Beta2AR agonist -2.0, ALR inh -14.8, E coli growth 0.682, HNF4A DNA FP 1.6, FGF22 binding inactive, UCH37 DUB inh 3.2, rRNA inh HTS OD600 8.3 and rRNA inh HTS RFP 0.9.
`CC1Cn2c(nc3c2c(=O)[nH]c(=O)n3C)O1` (stereo unspecified) gave Beta2AR agonist -24.1, ALR inh -4.6, E coli growth 0.752, HNF4A DNA FP 1.2 and UCH37 DUB inh 4.3.
For CCOC(=O)C1CCN(c2cc(=O)n(-c3ccc(OC)cc3)c(=O)[nH]2)CC1 the results were rRNA inh HTS 6.8, Beta2AR agonist 0.9, ALR inh 46.8, E coli growth 0.735, HNF4A DNA FP 1.3, FGF22 binding inactive, UCH37 DUB inh 2.9, rRNA inh HTS OD600 12.4 and rRNA inh HTS RFP 2.3.
Screening COc1cc2c(cc1OC)C(c1ccccc1)N(C(=O)c1ccco1)CC2 (stereo unspecified) returned rRNA inh HTS -27.2, Beta2AR agonist 5.3, ALR inh -7.9, E coli growth 0.743, HNF4A DNA FP 0.7, FGF22 binding inactive, UCH37 DUB inh 5.5, rRNA inh HTS OD600 -36.5 and rRNA inh HTS RFP -2.2.
S=c1[nH]nc(-c2cccnc2)n1-c1ccccc1 was read as rRNA inh HTS 15.4, Beta2AR agonist 3.9, ALR inh 51.4, E coli growth 0.721, HNF4A DNA FP -2.8, FGF22 binding inactive, UCH37 DUB inh 3.7, rRNA inh HTS OD600 10.7 and rRNA inh HTS RFP 3.6.
Screening C[C@@H](O)c1nc2ccccc2n1N returned Beta2AR agonist -1.9, ALR inh -4.4, E coli growth 0.679, HNF4A DNA FP 3.0 and UCH37 DUB inh 3.6.
`OC(CN1CCN(c2ccccn2)CC1)Cn1c2ccccc2c2ccccc21` (stereo unspecified) gave rRNA inh HTS -40.1, Beta2AR agonist 7.3, ALR inh 0.1, E coli growth 0.615, HNF4A DNA FP -0.6, FGF22 binding inactive, UCH37 DUB inh 0.0, rRNA inh HTS OD600 -35.5 and rRNA inh HTS RFP -1.8.
For COc1ccc(CC(=O)Nc2cc3oc4ccccc4c3cc2OC)cc1 the results were Beta2AR agonist 5.6, ALR inh -20.1, E coli growth 0.778, HNF4A DNA FP 0.0, FGF22 binding inactive and UCH37 DUB inh -0.2.
N#Cc1nc(-c2ccc(OCc3ccccc3)cc2)oc1NCCCn1ccnc1 was read as Beta2AR agonist -5.6, ALR inh 2.6 and HNF4A DNA FP 0.7.
For O=C(CCN1CCN(Cc2ccccc2)CC1)Nc1ccccc1Cl the results were rRNA inh HTS 8.0, Beta2AR agonist -6.9, ALR inh -7.7, E coli growth 0.716, HNF4A DNA FP -2.9, FGF22 binding inactive, UCH37 DUB inh 2.8, rRNA inh HTS OD600 3.1 and rRNA inh HTS RFP -0.8.
Screening COc1ccc(N(CC(=O)Nc2ccc(F)c(Cl)c2)S(=O)(=O)c2c(C)noc2C)cc1 returned Beta2AR agonist 30.5, ALR inh 0.1, E coli growth 0.688, HNF4A DNA FP -2.6 and UCH37 DUB inh 3.9.
`COc1cc(C(=O)NCc2cn3ccccc3n2)cc(OC)c1OC` gave rRNA inh HTS 4.9, Beta2AR agonist 0.1, ALR inh -4.3, E coli growth 0.64, HNF4A DNA FP 1.8, FGF22 binding inactive, UCH37 DUB inh 6.0, rRNA inh HTS OD600 3.4 and rRNA inh HTS RFP 0.7.
For COc1ccc(N2CC(NS(=O)(=O)c3ccc4ccccc4c3)CC2=O)cc1 (stereo unspecified) the results were rRNA inh HTS -14.5, Beta2AR agonist 4.8, ALR inh -1.2, E coli growth 0.656, HNF4A DNA FP 0.2, FGF22 binding inactive, UCH37 DUB inh 5.4, rRNA inh HTS OD600 -25.1 and rRNA inh HTS RFP 1.4.
For CC1(C)CC2CC(C)(CN2CC(O)c2ccccc2)C1 (stereo unspecified) the results were rRNA inh HTS 4.5, Beta2AR agonist -0.6, ALR inh 16.1, E coli growth 0.608, HNF4A DNA FP -1.1, FGF22 binding inactive, UCH37 DUB inh 0.8, rRNA inh HTS OD600 13.5 and rRNA inh HTS RFP 3.4.
`COc1ccc(OC)c(CNC(=O)c2[nH]c(C(F)(F)F)nc2-c2ccccc2)c1` gave rRNA inh HTS -5.8, HNF4A DNA FP 6.1, FGF22 binding inactive, rRNA inh HTS OD600 -24.8 and rRNA inh HTS RFP 1.8.
Cc1ccc(C)c(NC(=O)CSc2sc3c(O)cc(=O)[nH]c3c2C#N)c1 was read as rRNA inh HTS 1.8, Beta2AR agonist 14.7, ALR inh inconclusive, E coli growth 0.699, HNF4A DNA FP -2.3, FGF22 binding inactive, UCH37 DUB inh 4.5, rRNA inh HTS OD600 -0.4 and rRNA inh HTS RFP 1.1.
For CCOC(=O)c1c2c3c(cccc3n(C)c1=O)C(=O)c1ccccc1-2 the results were rRNA inh HTS -2.7, Beta2AR agonist 8.4, ALR inh -23.6, HNF4A DNA FP -14.3, FGF22 binding inactive, rRNA inh HTS OD600 -6.2 and rRNA inh HTS RFP 4.3.
For CC(C)CN1CCN(Cc2nc(C(C)C)cs2)CC1CCO (stereo unspecified) the results were rRNA inh HTS 21.5, Beta2AR agonist 1.2, ALR inh -1.8, E coli growth 0.651, HNF4A DNA FP -1.5, FGF22 binding inactive, UCH37 DUB inh 2.4, rRNA inh HTS OD600 -2.5 and rRNA inh HTS RFP 2.5.
`COC(=O)CCc1c(C)c(C(=O)c2cc(F)c(F)c(F)c2F)c2ccccn12` gave rRNA inh HTS 15.0, Beta2AR agonist 1.1, ALR inh -17.1, E coli growth 0.621, HNF4A DNA FP 0.4, FGF22 binding inactive, UCH37 DUB inh 3.5, rRNA inh HTS OD600 10.5 and rRNA inh HTS RFP 4.4.
Screening COc1ccc(/C=N\NC(=O)c2sc(N)nc2C)cc1OC returned Beta2AR agonist 2.7, ALR inh -16.3 and HNF4A DNA FP 0.2.
For Cn1ncc([N+](=O)[O-])c1C(=O)N1CCCCCC1 the results were rRNA inh HTS 19.1, Beta2AR agonist 1.4, E coli growth 0.719, HNF4A DNA FP 3.8, FGF22 binding inactive, UCH37 DUB inh 1.9, rRNA inh HTS OD600 15.3 and rRNA inh HTS RFP 1.1.
Cn1c(=O)c2[nH]c(=O)cnc2n(C)c1=S was read as rRNA inh HTS 20.0, Beta2AR agonist 16.5, ALR inh 2.7, E coli growth 0.713, HNF4A DNA FP 7.4, FGF22 binding inactive, UCH37 DUB inh -5.8, rRNA inh HTS OD600 14.9 and rRNA inh HTS RFP 0.8.
For O=C(CSc1c2c(nc3ccc(Cl)cc13)CCCC2)N1CCN(C(=O)c2ccco2)CC1 the results were rRNA inh HTS -24.1, Beta2AR agonist 22.6, E coli growth 0.648, HNF4A DNA FP 1.6, FGF22 binding inactive, UCH37 DUB inh 13.2, rRNA inh HTS OD600 1.3 and rRNA inh HTS RFP 15.6.
Cc1ccccc1OCCC(=O)Nc1ccc2c(C)cc(=O)oc2c1 was read as rRNA inh HTS 12.9, Beta2AR agonist -0.3, ALR inh -4.4, E coli growth 0.678, HNF4A DNA FP -0.1, FGF22 binding inactive, UCH37 DUB inh inactive, rRNA inh HTS OD600 11.7 and rRNA inh HTS RFP -3.2.
For Brc1c(OCCOCCn2cncn2)ccc2ccccc12 the results were Beta2AR agonist 10.8, ALR inh -36.0, E coli growth 0.673, HNF4A DNA FP 3.5 and UCH37 DUB inh 6.7.
`Cc1ccc(CNS(=O)(=O)c2cn(C)cn2)cc1` gave rRNA inh HTS 15.7, Beta2AR agonist -0.7, ALR inh 0.6, E coli growth 0.684, HNF4A DNA FP -1.3, FGF22 binding inactive, UCH37 DUB inh 5.1, rRNA inh HTS OD600 7.4 and rRNA inh HTS RFP -0.2.
CS(=O)(=O)c1ccc2nc(NC(=O)c3cccc(NS(=O)(=O)c4ccc(F)c(F)c4)c3)sc2c1 was read as Beta2AR agonist 4.2, ALR inh 1.0, E coli growth 0.651, HNF4A DNA FP 3.6 and UCH37 DUB inh -10.7.
For CCOc1ccccc1/C=N/NC(=O)CNC(=O)COc1ccccc1 the results were rRNA inh HTS 6.5, Beta2AR agonist -6.1, ALR inh -4.6, HNF4A DNA FP -2.3, FGF22 binding inactive, rRNA inh HTS OD600 1.9 and rRNA inh HTS RFP 1.1.
Screening CC(OC(=O)c1cccc(S(=O)(=O)N2CCN(C)CC2)c1)C(=O)Nc1ccc(C(N)=O)cc1 (stereo unspecified) returned rRNA inh HTS 10.6, Beta2AR agonist -2.5, ALR inh -3.1, E coli growth 0.715, HNF4A DNA FP 4.2, FGF22 binding inactive, UCH37 DUB inh 0.5, rRNA inh HTS OD600 12.6 and rRNA inh HTS RFP 1.6.
Screening CCc1nnc(NC(=O)C(CC)CC)s1 returned rRNA inh HTS 1.9, Beta2AR agonist 1.5, ALR inh 49.8, E coli growth 0.693, HNF4A DNA FP 0.0, FGF22 binding inactive, UCH37 DUB inh 3.2, rRNA inh HTS OD600 4.2 and rRNA inh HTS RFP -3.1.
COc1ccc(NC(=O)C2(C)CCCN(C(C)C)C2)cc1OC (stereo unspecified) was read as rRNA inh HTS 4.3, HNF4A DNA FP 6.2, FGF22 binding inactive, rRNA inh HTS OD600 7.5 and rRNA inh HTS RFP -2.8.
`Cc1cc(C)nc(/N=C(\N)Nc2ccc([N+](=O)[O-])cc2)n1` gave Beta2AR agonist 1.9, ALR inh 1.1 and HNF4A DNA FP -1.2.
`O=C(Cc1cccc([N+](=O)[O-])c1)Nc1cccc(C(=O)N2CCOCC2)c1` gave rRNA inh HTS 8.3, Beta2AR agonist -3.9, ALR inh 4.3, E coli growth 0.692, HNF4A DNA FP 6.4, FGF22 binding inactive, UCH37 DUB inh -0.6, rRNA inh HTS OD600 8.4 and rRNA inh HTS RFP -4.8.
For CCOC(=O)N1CCN(C(=O)Cn2c(=O)sc3ccccc32)CC1 the results were Beta2AR agonist -1.3, ALR inh 12.5, E coli growth 0.741, HNF4A DNA FP 3.7 and UCH37 DUB inh 3.9.
`Nc1c(-c2ccccc2)cnc2c(-c3ccccc3)cnn12` gave rRNA inh HTS 2.8, Beta2AR agonist 11.4, ALR inh 1.4, E coli growth 0.703, HNF4A DNA FP 4.9, FGF22 binding inactive, UCH37 DUB inh -59.8, rRNA inh HTS OD600 9.0 and rRNA inh HTS RFP 0.8.

In the list so far, these have a cyano group:
N#Cc1nc(-c2ccc(OCc3ccccc3)cc2)oc1NCCCn1ccnc1 was read as Beta2AR agonist -5.6, ALR inh 2.6 and HNF4A DNA FP 0.7.
Cc1ccc(C)c(NC(=O)CSc2sc3c(O)cc(=O)[nH]c3c2C#N)c1 was read as rRNA inh HTS 1.8, Beta2AR agonist 14.7, ALR inh inconclusive, E coli growth 0.699, HNF4A DNA FP -2.3, FGF22 binding inactive, UCH37 DUB inh 4.5, rRNA inh HTS OD600 -0.4 and rRNA inh HTS RFP 1.1.
